TsaE inh – inhibitors of E. coli YjeE (TsaE); P0AF67; purified YjeE, fluorescence polarisation of a bound ADP probe; Potency, µM; 71,000 tested, 0.05% active; AID 605; active = well fitted falling curve; inconclusive = weaker or top-dose-only fall, or a rising curve; inactive = flat or poorly fitted curve;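 further: top concentration of the series not given in the record; excess ADP was the control for the full effect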
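Fluorescence polarization of a BODIPY Texas Red–ADP probe (2 uM) bound to purified YjeE (10 uM) was read after 15 min room-temperature incubation with compounds. Loss of polarization marks inhibitors; ADP serves as titrated control.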
PK Bst – modulators of Bacillus stearothermophilus pyruvate kinase. partly purified Bacillus stearothermophilus pyruvate kinase, luminescence ATP production; ribose 5-phosphate activator present at AC10. Potency, µM. 51,000 tested, 1.2% active; in the data active means potency below about 11 µM; inconclusive means mostly about 12 µM to 25 µM; inactive means weaker than that;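 the screen sought inhibitors and activators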;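 further: potency means the concentration at half of the fitted maximal effect; scaled between full activation by ribose 5 phosphate and full inhibition by luteolin; about four in five hits inhibit and the cells do not say which; series up to 57 µM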
* hit, by the source's call; i = inactive; ? = inconclusive; . = no result given. These rows are one share of the data; rates above refer to the full screens.

Below each SMILES: TsaE inh, PK Bst
1) CCCCn1c(=O)n(CC(=O)Nc2ccc(C)c(Cl)c2)c(=O)c2c1ncn2Cc1ccco1
    i, >57
2) Cc1oc(-c2cccs2)nc1CS(=O)CC(=O)NCCCN1CC(C)CC(C)C1 (centres undefined)
    i, .
3) CCOC(=O)c1[nH]nc2c1C(=O)N(Cc1ccccc1)C2=O
    i, >57
4) Cc1ncsc1CCSc1n[nH]c(=O)n1-c1ccccc1
    i, >57
5) CSc1nc2ccc(NS(=O)(=O)c3ccc4c(c3)OCCO4)cc2s1
    i, >57
6) c1cncc(-c2nc(-c3ccco3)cs2)c1
    i, >11
7) CCCC(C(=O)NCc1ccco1)N(C(=O)CNS(=O)(=O)c1ccc(Cl)cc1)C1CCCC1 (centres undefined)
    i, >57
8) O=C(Cn1nnc(-c2ccccc2)n1)c1ccccc1
    i, >57
9) CCOc1ccc(NC(=O)CSc2nnc(-c3ccccn3)n2N)cc1
    i, >57
10) COCCOC(=O)C1=C(C)NC(=O)NC1c1c(OC)ncnc1OC (centres undefined)
    i, >57
11) Cc1c(C(=O)N2CCOCC2)sc(NC(=O)c2ccc3c(c2)OCO3)c1C#N
    i, >57
12) CC(=O)OCC1C2CC[C@H]3C(OCc4ccc(F)cc4C(F)(F)F)OC[C@]4(C)[C@H]3C2=C(CN4C(=O)OC(C)(C)C)[C@H](C)C1COC(C)=O (some centres undefined)
    i, .
13) O=C(CN1CCN(c2ccccn2)CC1)Nc1cc(C(F)(F)F)ccc1Cl
    i, >57
14) CC(=O)c1ccc(N2CCN(C(=O)CCCn3c(=S)[nH]c4cc5c(cc4c3=O)OCO5)CC2)cc1
    i, >57
15) COC(=O)c1ccccc1NC(=O)NCc1ccco1
    i, >57
16) O=S(=O)(c1ccccc1)N1CCN(C2CCCCCCC2)CC1
    i, >57
17) CN1CCN(c2ncc3nc(-c4ccc(Cl)cc4)c(=O)n(C4CC4)c3n2)CC1
    i, .
18) CCOC(=O)N1CCN(C(=O)COc2cc(=O)n(CC)c3ccccc23)CC1
    i, >57
19) Cc1ccc(S(=O)(=O)N[C@H](C(=O)N2CCC(C(=O)NCC(=O)O)CC2)C(C)C)cc1
    i, >57
20) COc1ccccc1C1NC(=O)NC(C)=C1C(C)=O (centres undefined)
    i, >57
21) O=C1c2ccccc2C(=O)N1CCN1CCOCC1
    i, .
22) CCC(SC1=Nc2ccccc2C2=NC(CC(C)C)C(=O)N12)C(=O)Nc1ccc2c(c1)OCO2 (centres undefined)
    i, >57
23) CCn1c(SCC(=O)Nc2cc(C)on2)nnc1-c1ccc(S(=O)(=O)N2CCCC2)cc1
    i, >57
24) O=C(Nc1ccccc1C(=O)N1CCCCC1)C1CCCCC1
    i, >57
25) Cc1cccc(Cn2cnc3c(nnn3Cc3ccccc3F)c2=O)c1
    i, >57
26) O=C(c1ccc(Br)cc1)C1CCc2occc2C1=O (centres undefined)
    i, ?
27) CCOC(=O)N1CCC(N2CCN(S(=O)(=O)CC)CC2)CC1
    i, >57
28) CN(C)Cc1ccccc1-c1cncnc1Nc1ccc(F)cc1
    i, .
29) O=c1nc(N2CCOCC2)nc2n1CCO2
    i, >57
30) Cc1ccc(CN(Cc2cc3cc(C)ccc3[nH]c2=O)C(=O)N2CCOCC2)cc1
    i, >57
31) Cc1ccc(CNc2ccc(N3CCOCC3)c(C(=O)O)c2)s1
    i, >57
32) O=C(Nc1ccccc1Oc1ccccc1)c1cnccn1
    i, >57
33) COc1cc(C(c2nnnn2C2CCCC2)N2CCN(C)CC2)cc(OC)c1OC (centres undefined)
    i, >57
34) CCOC(=O)c1cccc(NC(=O)CSc2nnc(COc3ccccc3C)o2)c1
    i, >57
35) Cn1c(=O)oc2cc(S(=O)(=O)N3CCN(c4ccccn4)CC3)ccc21
    i, .
36) COc1ccc(OC)c(NC(=O)C2COc3ccccc3O2)c1 (centres undefined)
    i, .
37) Cc1c(NC(=O)C(C)OC(=O)c2cc3c4ccccc4n(C)c3s2)c(=O)n(-c2ccccc2)n1C (centres undefined)
    i, >11
38) Cc1nnc2n(Cc3ccccc3)c(=O)c3c4c(sc3n12)CCCC4
    i, >57
39) Cc1cc(C)c(S(=O)(=O)N(C)CC(=O)NC2CCCC2)c(C)c1
    i, >11
40) COc1cc(Cn2c(C(=O)O)cc3sccc32)cc(OC)c1OC
    i, >57
41) CC(C)C1CC(c2csc(N)n2)CCO1 (centres undefined)
    i, >57
42) O=C(c1ccco1)N1CCN(Cc2ccccc2C(F)(F)F)CC1
    i, .
43) COc1ccc(N(CC(=O)N2CCCCC2)S(=O)(=O)c2c(C)nn(C)c2C)cc1
    i, .
44) O=C(CSc1nnc2ccccn12)N1CCOCC1
    i, >57
45) C#CCSc1nsc(SCC#C)c1C#N
    i, >57
46) CC(C)(C)NC(=O)c1cc(NC(=O)c2ccco2)cc(NC(=O)c2ccco2)c1
    i, .
47) COc1ccc(S(=O)(=O)N2CCn3c2nc2ccccc23)cc1
    i, >57
48) N#C/C(=C(/O)COC(=O)c1ccc2c(c1)OCCO2)c1nc2ccccc2[nH]1
    i, >57
49) CCOC(=O)C1=C(C)NC(=O)NC1c1ccc(NC(C)=O)cc1 (centres undefined)
    i, >57
50) O=C(CCSc1nnc2scc(-c3ccccc3)n12)Nc1nc(-c2ccccc2)ns1
    i, >57

7 records drawn at random from those above, as already listed:
Below each SMILES: TsaE inh, PK Bst
48) N#C/C(=C(/O)COC(=O)c1ccc2c(c1)OCCO2)c1nc2ccccc2[nH]1
    i, >57
46) CC(C)(C)NC(=O)c1cc(NC(=O)c2ccco2)cc(NC(=O)c2ccco2)c1
    i, .
44) O=C(CSc1nnc2ccccn12)N1CCOCC1
    i, >57
47) COc1ccc(S(=O)(=O)N2CCn3c2nc2ccccc23)cc1
    i, >57
42) O=C(c1ccco1)N1CCN(Cc2ccccc2C(F)(F)F)CC1
    i, .
41) CC(C)C1CC(c2csc(N)n2)CCO1 (centres undefined)
    i, >57
50) O=C(CCSc1nnc2scc(-c3ccccc3)n12)Nc1nc(-c2ccccc2)ns1
    i, >57

The list goes on.
Below each SMILES: TsaE inh, PK Bst
51) C[C@@H]1c2ccccc2CN1CC1=NCCN1
    i, .
52) Clc1ccccc1CSc1nnc(-c2cccnc2)n1Cc1ccco1
    i, >57
53) Cc1oc2c(CN3CCCC3)c(O)ccc2c(=O)c1Oc1ccccc1Br
    i, >57
54) O=C(Nc1ccon1)C1CCN(S(=O)(=O)c2cccs2)CC1
    i, >57
55) Cc1cnc(CNc2ncncc2-c2ccccc2C(F)(F)F)cn1
    i, .
56) CC(C)C(=O)NC(C)C(c1cccs1)N1CCN(C)CC1 (centres undefined)
    i, >57
57) COc1ccc(OC)c(C2CC(=O)c3c([nH]c(C(=O)OCC4CCCO4)c3C)C2)c1 (centres undefined)
    i, .
58) CCCN1CN(Cc2ccccc2)CC2=C1CC(C)(C)CC2=O
    i, >57
59) CCC(=O)Nc1nnc(Sc2ccc(N(C)C)cc2)s1
    i, .
60) N#CC(C(=O)C1CCCCC1)c1nc2ccccc2[nH]1 (centres undefined)
    i, >57
61) Cc1cc(S(=O)(=O)Nc2c(C(=O)O)[nH]c3ccccc23)ccc1F
    i, i
62) CC1(C)NC(=O)N(CCCCOc2cccc(C(F)(F)F)c2)C1=O
    i, >57
63) Cc1cc(C2C(=O)C(C(=O)c3ccc(Cl)cc3)C(=O)CC2(C)C)on1 (centres undefined)
    i, >57
64) O=C(NCc1ccc(F)cc1)c1cnc2sccn2c1=O
    i, .
65) CCC(CC)c1nnc(NS(=O)(=O)Cc2ccccc2)s1
    i, >57
66) COc1ccc(Cc2noc(-c3ccc(C)cc3)n2)cc1
    i, .
67) COC1(OC)N=C(N)C2(C#N)C(c3ccc(F)cc3)C12C#N (centres undefined)
    i, >57
68) O=c1cc(CSc2ccc(S(=O)(=O)N3CCCCC3)cn2)nc2sccn12
    i, >57
69) CC(=O)NC1N=C(C)N(c2ccccc2)C1=O (centres undefined)
    i, >57
70) CC(C)NC(=O)N1CCCC2(CCN(C(=O)c3ccco3)CC2)C1
    i, .
71) O=C(COC(=O)CCc1c[nH]c(=O)[nH]1)Nc1ccccc1Cl
    i, >57
72) CC(=O)c1cc2c(cc1NC(=O)c1cc(C)nn1-c1ccccc1)OCO2
    i, .
73) COc1ccc(C2CC(=O)C(C=NCCN3CCN(C(C)=O)CC3)=C(O)C2)cc1OC (centres undefined)
    i, .
74) CCCCn1c(C)nc2c(=O)n(C)c(=O)[nH]c21
    i, >57
75) Oc1ccc(Cl)cc1CNc1ccc(Br)cn1
    i, .
76) COc1ccc2c(=O)c3c(=O)n(Cc4ccco4)c(-c4cc(OC)c(OC)c(OC)c4)nc3oc2c1
    i, >57
77) O=C(O)c1cccc(S(=O)(=O)Nc2ccc3oc(=O)sc3c2)c1
    i, >57
78) COCCNC(=O)CN1CCN(Cc2cccc(Cl)c2)C1=O
    i, .
79) CCc1ccc(OCC(=O)NCc2ccco2)c(Br)c1
    i, .
80) COc1ccc(C(=O)Nc2ccccc2C(=O)NCCCn2ccnc2)cc1
    i, .
81) Cc1cc(NC(=O)CSc2nnc3c(C)cc4c(C)ccc(C)c4n23)no1
    i, >57
82) COc1ccc(NC(=O)c2ccc(Cl)c(S(=O)(=O)N3CCc4ccccc4C3)c2)cn1
    i, >57
83) COC(=O)Cc1cc(=O)[nH]c(Nc2nc3ccccc3o2)n1
    i, .
84) CC1(C)CC(=O)N(CC(=O)NCc2ccc(F)cc2)c2ccccc2S1(=O)=O
    i, .
85) O=S1(=O)CCN(Cc2ccccn2)CC1
    i, .
86) COc1ccc(CCNC2CC(C)N(C)CC2C)cc1OC (centres undefined)
    ., >26
87) Cc1nc2c(c(=O)n1CCC1=CCCCC1)c1nc3ccccc3nc1n2/N=C/c1ccco1
    i, >57
88) C=CCn1c(SC(C)C(=O)NC2(C#N)CCCCC2)nnc1-c1ccc(OC)cc1 (centres undefined)
    i, >57
89) CCc1nc(N)c(C#N)c(-c2ccc(O)c(OC)c2)c1C
    i, >57
90) CC(=O)NCCc1ccc(O)c(O)c1
    i, .
91) CC(NS(=O)(=O)c1ccc(F)cc1)C(c1cccs1)N1CCN(C)CC1 (centres undefined)
    i, >57
92) COc1ccccc1Cn1c(=S)[nH]c2cc(C(=O)NCCN3CCOCC3)ccc2c1=O
    i, >57
93) CCN1C(=Nc2ccc(Cl)cc2)SC/C1=C\C(=O)OC
    i, >57
94) O=C(CSc1ccc2nnc(-c3ccc(F)cc3)n2n1)NCc1ccco1
    i, >57
95) O=C(Cn1ccc2ccccc2c1=O)NCCC(=O)Nc1cccnc1
    i, >57
96) CC1CCCN(c2ccc(C(=O)NCC3CCCO3)cn2)C1 (centres undefined)
    i, >57
97) CC(C)(C)CC(=O)N1CCC(c2nc3c(nnn3Cc3c(F)cccc3Cl)c(=O)[nH]2)CC1
    i, >57
98) Cn1c(=O)c2c(nc(OC/C=C/c3ccccc3)n2C)n(C)c1=O
    i, >57
99) O=S1(=O)NC2CCCCCN2c2ccc(F)cc21 (centres undefined)
    i, >57
100) COc1ccc(C2OC(=O)CC2C(=O)N2CCN(c3cc(Cl)ccc3C)CC2)cc1OC (centres undefined)
    i, .

Another view of three compounds above:
| entry | TsaE inh | PK Bst | SMILES |
| --- | --- | --- | --- |
| 93 | i | >57 | CCN1C(=Nc2ccc(Cl)cc2)SC/C1=C\C(=O)OC |
| 95 | i | >57 | O=C(Cn1ccc2ccccc2c1=O)NCCC(=O)Nc1cccnc1 |
| 92 | i | >57 | COc1ccccc1Cn1c(=S)[nH]c2cc(C(=O)NCCN3CCOCC3)ccc2c1=O |

(next part)
Below each SMILES: TsaE inh, PK Bst
101) Cc1ccc2cc3c(NC(=O)C(C)C)nn(C)c3nc2c1
    i, >57
102) O=C(c1cc(C(F)(F)F)cc(C(F)(F)F)c1)N1CCC2(CCN(Cc3ccncc3)CC2)CC1
    i, .
103) COCCNS(=O)(=O)c1cc(-c2nn(C)c(=O)c3ccccc23)ccc1C
    i, >57
104) CC(=O)Cc1nsc(NC(=O)c2cc(-c3cccc(C(F)(F)F)c3)oc2C)n1
    i, >57
105) COc1cc(OC)cc(C(=O)NCCNC(=O)c2ccccc2)c1
    i, >57
106) Nc1ccc2[nH]cc(CCC(=O)O)c2c1
    i, .
107) O=c1[nH]c(CN2CCN(CCO)CC2)nc2ccccc12
    i, >57
108) CCNC(=O)C1CCCN1S(=O)(=O)c1ccc(OC)cc1 (centres undefined)
    i, >57
109) COc1ccccc1NC(=O)NC(N)=O
    i, >57
110) N#Cc1c(N)oc(-c2ccc3c(c2)OCO3)c1-c1ccc2c(c1)OCO2
    i, >57
111) CCOC(=O)c1oc2nc(C(C)C)c3c(c2c1N)CC(C)(C)OC3
    i, >57
112) CSc1nc2cc(F)c(F)cc2n1C
    i, >57
113) Cc1nc(NC2CCCCC2)c2nc(-c3ccccc3)n(CCCN3CCOCC3)c2n1
    i, .
114) c1ccc(C2NCCn3cccc32)cc1 (centres undefined)
    i, .
115) C[N+](C)(C)C/C=C1/COCO1
    i, >57
116) COc1cccc(Cn2c(=O)cnc3cnc(OCc4ccccc4)nc32)c1
    i, .
117) CNC(=O)[C@H]1O[C@H](n2cnc3c(NCc4cccc(I)c4)ncnc32)[C@@H](O)[C@@H]1O
    i, .
118) CCCc1nnc(NC(=O)c2ccncc2)s1
    i, .
119) CCc1c(C)sc(NC(=O)c2cc(C)no2)c1C#N
    i, .
120) O=C(c1ccc(Cn2c(=O)[nH]c3ccccc3c2=O)cc1)N1CCN(c2ccccc2)CC1
    i, >57
121) O=C(Nc1ccc2c(c1)OCO2)C1(S(=O)(=O)c2ccc(Cl)cc2)CC1
    i, >57
122) Cc1ccc(-c2nnc3ccc(SCC(=O)N4CCCCC4)nn23)cc1
    i, >57
123) CC1CCCCC1NC(=O)Cn1nnc(-c2ccc(Cl)cc2)n1 (centres undefined)
    i, >57

Assay outcomes from PubChem BioAssay.
